Screens (PubChem BioAssay)
TRPML1 ag = human mucolipin-1 channel agonism; activation, % (test concentration not listed); Q9GZU1; TRPML1-expressing cells, Ca2+ dye fluorescence, FDSS; host cell line not named in the record; reference of the full effect not given here; hit rate 0.12% among 410,000; in the data active = activation above about 50%; inconclusive = about 30% to 50%; inactive = below about 30%; further: 0% is about no effect; the text of the record puts the active cut at 80%
Target sequence (Q9GZU1 whole entry, looked up): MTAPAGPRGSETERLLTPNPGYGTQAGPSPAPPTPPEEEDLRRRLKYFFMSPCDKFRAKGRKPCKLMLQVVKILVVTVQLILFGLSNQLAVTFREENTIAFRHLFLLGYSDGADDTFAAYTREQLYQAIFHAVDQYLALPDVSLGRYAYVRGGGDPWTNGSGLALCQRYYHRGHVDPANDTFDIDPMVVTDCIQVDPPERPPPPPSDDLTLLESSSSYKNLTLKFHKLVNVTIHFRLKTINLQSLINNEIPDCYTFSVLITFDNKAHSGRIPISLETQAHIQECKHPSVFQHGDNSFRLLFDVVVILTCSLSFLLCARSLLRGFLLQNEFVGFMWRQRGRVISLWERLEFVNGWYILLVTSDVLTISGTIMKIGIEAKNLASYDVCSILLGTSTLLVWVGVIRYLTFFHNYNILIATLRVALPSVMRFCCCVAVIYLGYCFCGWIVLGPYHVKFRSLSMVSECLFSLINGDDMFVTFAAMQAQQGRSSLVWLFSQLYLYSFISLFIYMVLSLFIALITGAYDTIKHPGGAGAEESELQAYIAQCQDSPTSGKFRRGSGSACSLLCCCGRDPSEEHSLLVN
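Agonist activity was taken from a 110 s kinetic Ca2+ dye read on the FDSS after pinning compounds onto TRPML1-DL cells. The cells were seeded at 1,500/well with Tet inducer, incubated about 16 h, then dye-loaded at room temperature.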
TRPV1 potentiator = human TRPV1 potentiation; Q8NER1; TRPV1-expressing cells, Fluo-8 calcium influx, capsaicin EC20 potentiation; host cell line not named in the record; control for the full effect not named in the record; potentiation, % at 8.33 µM; hit rate 0.02% among 320,000; AID 540277; active means potentiation above 80%; inconclusive means 30% to 80%; inactive means below 30%; further: 0% is about no effect
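TRPV1-expressing cells were cultured overnight at 35.5C and loaded with Fluo-8 calcium dye for 40 to 90 min at room temperature. After a 10 s baseline, compound was added and calcium influx was read kinetically for 3 min (ex 480/em 520 nm).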
CtBP-E1A blk = CtBP/E1A binding inhibition; AlphaScreen GST-E1A/His-CtBP binding, 1536-well; hits give low values; control for the full effect not named in the record; activity change, % (concentration not given with the values); hit rate 0.49% among 340,000; AID 651724; in the data active means activity change below about -65%; inconclusive means about -30% to -65%; inactive means above about -30%; further: on the % scale 0 is the no-effect control and ±100 the full control effect
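Protein mix (5X: 125 nM each GST-E1A, His-CtBP) was incubated with pinned compound 2 h at 37 deg C in dark, in 50 mM Tris pH 8.0 buffer with 300 mM NaCl. Glutathione donor and nickel acceptor beads followed; AlphaScreen signal read after 1 h.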
D2 potentiator = positive allosteric modulators of human D2 dopamine receptor; P14416; DiscoveRx D2 beta-arrestin cells, luminescence, 90 min; 100% = 57 uM dopamine signal; potentiation, % (no concentration beside the values); hit rate 0.23% among 360,000; active = potentiation of 50% or more; inconclusive = 30% to 50%; inactive = 30% or less;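 further: compound concentration not given in the record; tested on top of an EC20 dose of dopamine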
Target sequence (P14416 whole entry, looked up): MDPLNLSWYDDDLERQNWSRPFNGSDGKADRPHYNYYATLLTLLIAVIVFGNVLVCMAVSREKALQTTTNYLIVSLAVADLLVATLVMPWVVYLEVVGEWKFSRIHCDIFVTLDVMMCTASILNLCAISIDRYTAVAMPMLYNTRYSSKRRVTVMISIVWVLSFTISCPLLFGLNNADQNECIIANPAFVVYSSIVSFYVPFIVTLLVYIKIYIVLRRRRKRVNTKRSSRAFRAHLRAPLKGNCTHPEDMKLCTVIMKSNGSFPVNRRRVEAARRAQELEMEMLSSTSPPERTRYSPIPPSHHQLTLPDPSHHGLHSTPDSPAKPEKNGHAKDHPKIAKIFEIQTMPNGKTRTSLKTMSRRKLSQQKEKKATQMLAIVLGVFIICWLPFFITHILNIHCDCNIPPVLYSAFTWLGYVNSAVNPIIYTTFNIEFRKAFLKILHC
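PathHunter beta-arrestin assay in DiscoveRx D2 cells. Compounds were added with an EC20 of dopamine (50 nM final) for 90 min at 37 deg C. Luminescence was read 1 h after detection reagent, with 57 uM dopamine as the EC100 control.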
TRPML1 inh = human mucolipin-1 channel inhibition; activity change, negative = inhibition, % (no concentration beside the values); hit rate 0.02% among 390,000; Q9GZU1; AID 624415; TRPML1-inducible cells, Ca2+ dye fluorescence, FDSS; hits give low values; inhibition of EC80 agonist-evoked calcium signal; in the data active means activity change below about -50%; inconclusive means about -30% to -50%; inactive means above about -30%;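 further: stimulus is agonist 54-4 at its EC80 concentration; on the % scale 0 is the no-effect control and ±100 the full control effect; compound concentration not given in the record; the text of the record puts the active cut at -80%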
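Tet-induced TRPML1-DL cells loaded with Ca8 no-wash calcium dye were read kinetically on FDSS. Compound addition was followed by EC80 agonist 54-4 (4 uM final); inhibition was read over 110 s.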
Six1-Eya2 inh = Six1/Eya2 interaction inhibition | AlphaScreen GST-Six1/His-Eya2 binding, biochemical; hits give low values; control for the full effect not named in the record | Q15475+O00167 | hit rate 0.56% among 360,000 | activity change, % (concentration not given with the values); in the data active = activity change below about -65%; inconclusive = about -30% to -65%; inactive = above about -30%; further: on the % scale 0 is the no-effect control and ±100 the full control effect
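GST-Six1 + His-Eya2 (5X stock: 250/500 nM); Tris pH 8.0, 300 mM NaCl, 0.05% BSA, 0.02% Tween 20; GSH donor/Ni acceptor beads; 1 h 37 °C dark; AlphaScreen readout.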
* hit, by the source's call; ? = inconclusive; . = no result given.

Each structure is followed by: CtBP-E1A blk, TRPV1 potentiator, D2 potentiator, TRPML1 inh, Six1-Eya2 inh, TRPML1 ag
- Cc1cccc(C)c1NC(=O)N1CCC(c2nc3ccccc3o2)CC1
 : -5, 3, -7, -8, 2, 0.0
- COC(=O)c1ccc(NCCC(=O)O)cc1
 : -8, 2, -13, -17, -6, 0.4
- CN(Cc1ccccc1)C(=O)c1cccc(N2C(=O)C3CC=CCC3C2=O)c1 (stereo unspecified)
 : 3, 18, -4, -10, 0, -0.7
- CC(=O)c1cccc([N+](=O)[O-])c1
 : 0, 1, -4, 27, -2, -0.3
- CC1CCCN(C(=O)c2ccc3c(c2)C(=O)N(CCC2=CCCCC2)C3=O)C1 (stereo unspecified)
 : -4, 26, -5, 29, 8, -0.3
- Cc1cc(=O)n2nc(N3CCCC(C(=O)NCCCN4CC(C)CC(C)C4)C3)sc2n1 (stereo unspecified)
 : 2, -6, -25, 2, 3, -0.3
- COc1ccc(Oc2nc3c(c(=O)n(C)c(=O)n3C)n2Cc2ccccc2)cc1
 : 6, -15, 2, -11, 0, 0.7
- CC1(C(=O)O)CCCN(C(=O)/C=C/c2ccccc2)C1 (stereo unspecified)
 : 12, ., -13, 98, 8, 3.7
- Oc1ccc(/C=N/Nc2ncc(Br)cn2)c(O)c1
 : -92*, 2, -29, 48, -88*, 1.2
- O=C(Nc1nccs1)C(=O)c1c[nH]c2ccccc12
 : -3, -3, ?, 5, -3, -0.9
- CC(C)=CCC/C(C)=C/C=N/NC(=O)c1ccc([N+](=O)[O-])cc1
 : -1, -28, -23, -1, -4, -0.3
- COc1cc(OC)cc(-n2nnnc2SCC(=O)NCCc2ccc(OC)c(OC)c2)c1
 : -4, -17, -7, 39, -3, 5.1
- c1ccc(Cn2nnnc2C(c2cccs2)N2CCCCCC2)cc1 (stereo unspecified)
 : 10, 1, -3, -13, 5, 7.3
- COCC1CCN(C(=O)c2ccc3oc(Cc4ccccc4)nc3c2)C1 (stereo unspecified)
 : 14, 4, ?, -1, 0, 1.1
- N#CCCN(C(=O)CN1CCN(S(=O)(=O)c2ccc3c(c2)OCCO3)CC1)c1ccc(F)cc1
 : -5, 4, -21, -16, 3, 0.8
- CCC1CCCCN1C(=O)CCc1nnc(C2CCCCC2)o1 (stereo unspecified)
 : -1, 13, -10, 16, 2, 0.2
- CCc1cccc(NC(=O)Cc2ccc([N+](=O)[O-])cc2)c1
 : 6, -25, -22, 25, 0, 1.9
- CCn1c(-c2csc(-c3ccc(Cl)cc3)n2)n[nH]c1=S
 : 3, -7, -28, -12, 0, -0.2
- CCC(=O)NC(=S)NNC(=O)c1ccc(OC)cc1
 : 8, 1, -19, 5, -7, -0.2
- O=C(C1=C[C@H](c2ccc(C(F)(F)F)cc2)C[C@H](OCc2ccc(CO)cc2)O1)N1CCN(Cc2ccccc2)CC1
 : -1, -14, -3, 1, -14, -0.5
- Cc1oc(C(C)(C)C)cc1C(=O)Nc1ccc(N2CCOCC2)cc1
 : -2, -17, -9, 3, -7, 0.7
- Nc1nonc1-n1nnc(C(=O)N/N=C/c2ccccc2O)c1CN1CCCC1
 : -93*, ., -1, 25, -91*, -0.2
- COC(=O)c1ccc(C)c(NS(=O)(=O)c2ccc(NC(C)=O)cc2)c1
 : 2, 1, -1, 3, 0, -0.3
- O=C(Nc1nnc(C2CC2)s1)C1Cc2ccccc2CN1S(=O)(=O)c1ccccc1F (stereo unspecified)
 : 8, -1, 12, 20, ?, 3.2
- COc1ccc(CCNC(=O)c2cc3c(=O)n4cccc(C)c4nc3s2)cc1OC
 : -4, 13, -2, 4, -12, -0.5
- O=C1COc2ccc(C(=O)NCc3ccc4c(c3)OCO4)cc2N1
 : 0, -3, -21, 6, 10, -0.4
- CN1CCN(CCOc2ccc(Cl)c(Cl)c2)CC1
 : 14, 1, -39, 13, 1, 0.9
- S=C(Nc1cccc(Br)c1)N1CCn2cccc2C1c1cccnc1 (stereo unspecified)
 : -14, -11, -16, -4, -13, 0.3
- Cc1cc(=O)[nH]c(N2CCN(c3ccc(Cl)cc3)CC2)n1
 : 5, ., -6, 41, -2, -0.3
- CC1CCCN(C(=O)c2cc3ccccc3cc2O)C1 (stereo unspecified)
 : 11, 3, -3, 14, 1, -0.1

Pulled one by one from above (three):
Each structure is followed by: CtBP-E1A blk, TRPV1 potentiator, D2 potentiator, TRPML1 inh, Six1-Eya2 inh, TRPML1 ag
- CN1CCN(CCOc2ccc(Cl)c(Cl)c2)CC1
 : 14, 1, -39, 13, 1, 0.9
- O=C1COc2ccc(C(=O)NCc3ccc4c(c3)OCO4)cc2N1
 : 0, -3, -21, 6, 10, -0.4
- Cc1oc(C(C)(C)C)cc1C(=O)Nc1ccc(N2CCOCC2)cc1
 : -2, -17, -9, 3, -7, 0.7

(next part)
Each structure is followed by: CtBP-E1A blk, TRPV1 potentiator, D2 potentiator, TRPML1 inh, Six1-Eya2 inh, TRPML1 ag
- COc1ccc(N2CCN(C3CCCCC3NS(=O)(=O)c3ccccc3)CC2)cc1 (stereo unspecified)
 : ?, 12, -25, -10, ?, ?
- CC(=O)c1ccc(Nc2ccc(-c3ccccc3F)nn2)cc1
 : -5, -10, 6, 2, -9, -0.4
- O=C(N/N=C/c1cc(Br)c(O)c(Br)c1O)c1ccc2c(c1)OCCO2
 : -97*, -8, -11, -19, -85*, 0.1
- O=C(CSc1nnc(Cc2cccs2)n1Cc1ccco1)Nc1cccc(Cl)c1
 : -7, 20, -16, 20, -10, 2.6
- CCCn1nnnc1NCc1ccccc1Cl
 : ., 18, 0, -15, -2, -0.6
- COc1ccc(S(=O)(=O)NCC2CCCO2)cc1Cl (stereo unspecified)
 : 6, -9, -3, 22, 6, 1.1
- CC(C)CCNC(=O)C1(C)CCN1Cc1ccc(-c2ccccn2)cc1 (stereo unspecified)
 : 21, ., -7, ., 17, -1.2
- Cc1ccccc1NC(=S)NCc1ccccc1
 : 0, -5, -9, 15, 0, 1.3
- CC(=O)NC(C)C(=O)OCc1ccc(Cl)cc1Cl (stereo unspecified)
 : -1, -20, -15, 9, 2, -1.3
- COc1ccc(OC)c(S(=O)(=O)Nc2ccc3c(c2)C(=O)OC3)c1
 : 5, 24, 2, 4, 9, 0.1
- CCOCCn1c2ccccc2c2nc3ccccc3nc21
 : -4, -13, -1, ., 0, .
- Cc1ccc(C2C3=C(CC(C)(C)CC3=O)Nc3onc(C)c32)cc1 (stereo unspecified)
 : -8, -2, 16, 15, 6, 1.4
- O=C(Nc1ccon1)c1cc2c(s1)CCCCCC2
 : 4, -8, 7, -1, -2, 2.2
- CCN1C(=O)C(O)(CC(=O)c2cc(C)ccc2C)c2ccccc21 (stereo unspecified)
 : -1, -4, 30, 10, 6, -0.5
- Cc1ccc(C)c(SCC(=O)NC(=O)NC2CCCC2)c1
 : 4, 13, 0, -14, -7, 1.9
- Cn1c(CNC(=O)c2ccco2)nnc1SCC(=O)Nc1ccc(Cl)cc1
 : -19, 22, -26, 6, -5, -0.6
- CSCCNC(=O)c1ccc2nc(Cc3ccccc3F)oc2c1
 : 4, -2, 17, 15, -5, 0.6
- CC(/C=N/NC(=O)c1ccncc1)=C\c1ccccc1
 : -10, -9, 9, -4, -7, -0.1
- CCc1ccc(OCC(=O)Nc2ccc(-c3cc4ccccc4oc3=O)c(OC)c2)cc1
 : -3, -20, -8, 3, 12, 0.1
- CSc1ccc(-c2nc(O)c3cnccn23)cc1
 : -6, 4, 14, -18, -4, -0.2
- COc1ccccc1NS(=O)(=O)c1ccc(C(=O)NCC(c2cccs2)N2CCOCC2)cc1 (stereo unspecified)
 : ., ., -11, -3, 2, 0.9
- COc1cccc(CNS(=O)(=O)c2cc(-c3cc(C)no3)ccc2C(C)C)c1
 : 0, 1, 5, -2, 5, -0.6
- Cc1cc(S(=O)(=O)N2CCN(C(=O)c3ccco3)CC2)ccc1F
 : -1, 7, 1, 10, -8, 0.6
- CCOc1ccc(CCNC(=O)COC(=O)COc2cc(C)cc(C)c2)cc1OCC
 : -1, 3, -5, 10, 1, 0.8
- CCOC(=O)C1=C(c2ccccc2)NC(=O)NC1c1ccc(N(C)C)cc1 (stereo unspecified)
 : -5, ?, 2, 1, -2, -0.6
- CC(C)C[C@H]1CN(CCCC[C@@H]2CNC(=O)C(=O)N2Cc2ccccc2)C(=O)C(=O)N1CCc1ccc(O)cc1
 : 0, ., ., ., -2, 1.4
- CCCCNc1nc(Nc2ccc(C)c(Cl)c2)c2cnn(C)c2n1
 : ?, -2, -1, 2, -25, 1.0
- CCOC(=O)C1=C(CC)Nc2ccccc2N=C1NC(=O)c1ccc(OC)c(S(=O)(=O)N2CCCCC2C)c1 (stereo unspecified)
 : 2, -8, 3, 15, -10, 1.6
- COC(=O)[C@]12CCCCC=C1N(Cc1ccc(Cl)cc1Cl)C(=O)[C@H](CC(=O)NCc1ccc(OC)c(OC)c1)C2
 : -3, ., ., ., -17, -0.5
- COc1ccccc1/C=C/C=C1N=C(/C=C/c2ccc(Cl)cc2)OC/1=O
 : -2, 3, -2, 3, 1, 0.9
- COc1ccc(OC)c(C(=O)NC(CC(N)=O)c2ccc(NCCN3CCCCC3)c([N+](=O)[O-])c2)c1 (stereo unspecified)
 : 6, -10, -6, -3, 8, -0.5
- CCCN1C(=S)SC(C)(C)C1/[N+]([O-])=C/c1cccnc1 (stereo unspecified)
 : -3, 4, -5, 25, 10, -0.3
- CC12CCC(C(=O)Nc3cc(Cl)ccc3Cl)(C(Br)C1=O)C2(C)C (stereo unspecified)
 : 22, ?, -27, 57, 12, 7.0
- O=C(C/C=N/OCc1ccccc1F)c1cnc(-c2ccc(Cl)cc2)s1
 : 0, 3, -7, 21, -4, -0.5
- CN(C)c1ccc(C(=S)N2CCCCCC2)cc1
 : -21, -5, 2, -1, -20, 0.7
- CC(C)(C)c1ccc(C(=O)NC(=S)Nc2nc3c(s2)CCCC3)cc1
 : -3, 13, -8, -15, 0, 0.3
- OCCN1CCN(c2cc(-c3ccc(CO)cc3)nc3ccnn23)CC1
 : -2, ., -7, ., 0, -1.0
- N#CCCN(C(=O)CN1CCN(S(=O)(=O)c2ccc(Cl)s2)CC1)c1ccc(F)cc1
 : 2, ., -14, -9, -5, 0.3
- CCC(=O)N1N=C(c2ccc(NS(C)(=O)=O)cc2)CC1c1ccc(N(C)C)cc1 (stereo unspecified)
 : ., -44, -9, 29, 20, 3.0
- CN(c1cccnc1)c1ncnc2[nH]ncc12
 : 6, 4, -7, -13, -1, 0.2
- CCOC(=O)/C(C#N)=C\c1ccc(N2CCN(C)CC2)cc1
 : 8, -15, -8, -19, -2, 1.2
- O=C(c1ccccc1)N1CC(COc2ccccc2)OC(c2cccnc2)O1 (stereo unspecified)
 : -3, -15, -26, 3, -10, -0.9
- Cc1ccc(CNC(=O)C2CCN(S(=O)(=O)N3CC(C)CC(C)C3)CC2)cc1 (stereo unspecified)
 : 3, -14, -9, 1, 4, -1.4
- O=C(Nc1ccccc1)C1=C[C@H](c2csc3ccccc23)C[C@H](OCc2ccc(CO)cc2)O1
 : -4, 17, -5, 19, -9, -0.7
- COc1ccc(OC)c(C(=O)NC(CC(N)=O)c2ccc(NCc3ccccn3)c([N+](=O)[O-])c2)c1 (stereo unspecified)
 : -14, 0, -4, -10, -13, -0.7
